VDR inh = blocks the human vitamin D receptor. VDR-SRC2-3 peptide fluorescence polarization, 2 h. hit rate 0.93% among 400,000. AID 504847. Potency, µM, inactives show max response, negative = inhibition, actives largely listed as inhibitors; active = well fitted inhibition curve with a large enough effect; inconclusive = small, poorly fitted or top-dose-only effect, or another doubt; inactive = no such curve, though single readings can be large or run the other way; note: series mostly up to about 120 µM
Target sequence (P11473 whole entry, looked up): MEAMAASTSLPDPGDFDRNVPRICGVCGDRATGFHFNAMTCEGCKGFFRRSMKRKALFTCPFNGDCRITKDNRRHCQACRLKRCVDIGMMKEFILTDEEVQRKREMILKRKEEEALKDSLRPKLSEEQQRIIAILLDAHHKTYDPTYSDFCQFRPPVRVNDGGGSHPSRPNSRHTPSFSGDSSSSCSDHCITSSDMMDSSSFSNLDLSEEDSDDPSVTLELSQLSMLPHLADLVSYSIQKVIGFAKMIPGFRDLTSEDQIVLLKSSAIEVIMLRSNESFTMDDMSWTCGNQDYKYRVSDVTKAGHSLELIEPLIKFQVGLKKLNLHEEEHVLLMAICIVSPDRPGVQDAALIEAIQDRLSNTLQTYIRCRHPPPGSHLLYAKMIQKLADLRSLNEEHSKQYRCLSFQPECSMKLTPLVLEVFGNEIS
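Inhibition of the VDR/SRC2-3 peptide interaction is quantified by fluorescence polarization. Compounds (23 nl, pintool) incubate with the reagents for 2 hours at ambient room temperature.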
Starred values were filed as active, the others as inactive; & = joins results of further samples. % is set by controls: 0 for no effect and ±100 for the full control effect; potency is the fitted concentration of half-maximal effect.

O=C(Cn1c(=O)c(=O)n(Cc2ccccc2)c2ccc(Cl)cc21)Nc1cccc(F)c1 was read as VDR inh 1%.
Screening COCCn1c(SCC(=O)c2ccc(F)cc2)nnc1C(C)C returned VDR inh -18%.
Screening COc1ccc(NC(=S)N2CCC(Cc3ccccc3)CC2)cc1OC returned VDR inh -20%.
For Cc1cc(F)ccc1S(=O)(=O)Nc1ccc(C(=O)N(C)Cc2ccco2)cc1 the results were VDR inh 12%.
Screening O=C(NCc1cccc(C(F)(F)F)c1)C1CC(c2c(Cl)cccc2Cl)=NO1 (stereo not drawn) returned VDR inh -1%.
`O=C(Nc1cnccc1C(F)(F)F)NC1CCCCC1` gave VDR inh -6%.
`Nc1[nH]n(-c2ccccc2)c(=O)c1N=Nc1ccc2c(c1)OCCO2` gave VDR inh -21%.
For COc1ccc(-c2nc3c4ccccc4n(CC(=O)Nc4ccc(C(C)C)cc4)c(=O)n3n2)cc1 the results were VDR inh -3%.
For COc1cc(C(=S)N2CCOCC2)ccc1OS(=O)(=O)c1ccc(Cl)cc1 the results were VDR inh -13%.
Screening COc1ccc(NC(=O)N2CCCn3nc(C)cc32)cc1OC returned VDR inh -2%.
`O=C1C(O)=CC(=C(c2ccccc2)c2ccccc2)c2ccccc21` gave VDR inh -21%.
`CCN(C(=O)CSc1nnnn1C)C1CCCCC1` gave VDR inh -19%.
Cc1csc(NC(=O)c2ccccc2C(=O)O)n1 was read as VDR inh 20%.
O=C(O)[C@H](Cc1ccccc1)N1C(=O)c2ccncc2C1=O was read as VDR inh 4%.
Screening O=C(Cc1sc(-c2ccccc2Cl)nc1-c1ccccc1)Nc1ccccc1 returned VDR inh 1%.

Looked up by structure from above:
For COc1ccc(-c2nc3c4ccccc4n(CC(=O)Nc4ccc(C(C)C)cc4)c(=O)n3n2)cc1 the results were VDR inh -3%.
Screening O=C(NCc1cccc(C(F)(F)F)c1)C1CC(c2c(Cl)cccc2Cl)=NO1 (stereo not drawn) returned VDR inh -1%.
`Nc1[nH]n(-c2ccccc2)c(=O)c1N=Nc1ccc2c(c1)OCCO2` gave VDR inh -21%.
For Cc1cc(F)ccc1S(=O)(=O)Nc1ccc(C(=O)N(C)Cc2ccco2)cc1 the results were VDR inh 12%.
`O=C(Nc1cnccc1C(F)(F)F)NC1CCCCC1` gave VDR inh -6%.
O=C(O)[C@H](Cc1ccccc1)N1C(=O)c2ccncc2C1=O was read as VDR inh 4%.
Screening O=C(Cc1sc(-c2ccccc2Cl)nc1-c1ccccc1)Nc1ccccc1 returned VDR inh 1%.

Continuation:
Screening CN1CCN(S(=O)(=O)c2ccc(NC(=O)C3CCCCC3)cc2)CC1 returned VDR inh 17%.
`Cc1ccc(NC(=O)CN2C(=O)C(c3ccccc3)=NC2(C)C)cc1C` gave VDR inh 2%.
`O=C(CCS(=O)(=O)c1cc(Br)cc2c1N(C(=O)C1CC1)CC2)Nc1ccc(C(F)(F)F)cc1` gave VDR inh -21%.
For Cc1ccc2c(c1)C=CC(C#N)N2C(=O)c1ccccc1 (stereo not drawn) the results were VDR inh -4%.
Screening O=C(O)c1ccc2c(c1)ncn2C1CCCCC1 returned VDR inh 6%.
`O=C(Cc1ccccc1)NN1C(=O)C2C3C=CC(C3)C2C1=O` (stereo not drawn) gave VDR inh -1%.
Screening Cc1ccc(S(=O)(=O)Cn2nnnc2CN2CCOCC2)cc1 returned VDR inh -9%.
N#C/C(=C\c1ccc(Sc2ccc(Cl)cc2)o1)c1nc2ccccc2[nH]1 was read as VDR inh -3%.
Screening COC(=O)CCC(=O)NC1CC(C)(C)Cc2c1cnn2-c1ccccc1 (stereo not drawn) returned VDR inh inconclusive.
`CC12CCC(=O)N1C(C(=O)Nc1nc(-c3ccc(F)c(F)c3)cs1)CS2` (stereo not drawn) gave VDR inh -3%.
`CCNc1ccc(C(=O)OCC(=O)N(Cc2ccccc2)C(C)(C)C)cc1[N+](=O)[O-]` gave VDR inh 6%.
CC(C)(C)OC(=O)CC[C@@H](C(=O)N1CCN(C(=O)OC(C)(C)C)CC1)n1cc(C(CO)NC(=O)OC(C)(C)C)nn1 (stereo partly drawn) was read as VDR inh -13%.
`COc1cc(-c2nnc(SCC3(c4ccc(Br)cc4)OCCO3)o2)cc(OC)c1OC` gave VDR inh 6%.
`CC(=O)N/C(=C\c1ccccc1)C(=O)OCc1ccccc1` gave VDR inh 4%.
For CC(C)CC(=O)Nc1nnc(S(=O)(=O)N2CCCCCC2)s1 the results were VDR inh 2%&17%.
`O=C(O)c1ccc2c(ccc3nn(-c4ccc(/C=C/c5ccc(-n6nc7ccc8cc(C(=O)O)ccc8c7n6)cc5[S+](=O)([O-])[O-])c([S+](=O)([O-])[O-])c4)nc32)c1` gave VDR inh -20%.
Screening Cc1cc(/C=N/Nc2ccc([N+](=O)[O-])cn2)c(C)n1-c1ccccc1 returned VDR inh -25%.
For Nc1c(C(=O)OCC(=O)Nc2ccc(OC(F)F)cc2)[nH]c(=O)[nH]c1=O the results were VDR inh 4%.
For Cc1ccc2c(CC(=O)Nc3c(C(=O)c4ccc(C)c(F)c4)oc4ccccc34)coc2c1 the results were VDR inh 15%.
Screening COc1cc2c(C(=O)NCCN(C)C)cn(CC(C)C)c(=O)c2cc1OC returned VDR inh -5%.
For N/C(=N\OC(=O)C1CCCCC1)c1cccnc1 the results were VDR inh 6%.
`O=C(c1ccccc1)N1CCSC1=S` gave VDR inh -2%.
`CC1(C)CO[C@@H](CC(=O)O)CN1` gave VDR inh 6%.
CCCOP(=O)(OCCC)C(Nc1ccc(C(C)C)cc1)c1ccc([N+](=O)[O-])cc1 (stereo not drawn) was read as VDR inh 24%.
For CCC(C)[C@H]1CN=C(N)N1CCc1cccc(F)c1 (stereo partly drawn) the results were VDR inh -12%.
For Cn1c(CN2CCOCC2)nnc1SCC(=O)Nc1cccc(C(F)(F)F)c1 the results were VDR inh 4%.
`Cc1ccc(OCCNS(=O)(=O)c2ccc(N3CCCC3=O)cc2)cc1C` gave VDR inh 6%.
Screening O=S(=O)(c1cccc2nonc12)N1CCN(c2cccc(Cl)c2)CC1 returned VDR inh 3%.
`CCOC(=O)C1CCCN(S(=O)(=O)c2cn(C)c(=O)n(C)c2=O)C1` (stereo not drawn) gave VDR inh 0%.
Screening Cc1c(=O)n(OCc2ccccc2F)c2ccccc2[n+]1[O-] returned VDR inh 6%.
Screening O=C(CSc1nnc(NC(=O)c2cccc(Cl)c2)s1)NCC1CCCO1 (stereo not drawn) returned VDR inh 9%.
Screening CC(C)CN(C(=O)COC(=O)CNC(=O)c1ccccc1F)c1c(N)n(Cc2ccccc2)c(=O)[nH]c1=O returned VDR inh 0%.
For CCc1ccc(CSc2nc(-c3ccc(OC)cc3)nc3c2Cc2c(CO)cnc(C)c2O3)cc1 the results were VDR inh -1%.
Screening CCCCC1(CC)SCC(=O)NC1=O (stereo not drawn) returned VDR inh -24%.
COc1cc(Cn2c(=O)sc3ccccc32)ccc1OCCC(C)C was read as VDR inh 1%.
C[C@@H]1O[C@@H](OC[C@H]2O[C@@H](Oc3c(-c4ccc(O)c(O)c4)oc4cc(O)cc(O)c4c3=O)[C@H](O)[C@@H](O)[C@@H]2O)[C@H](O)[C@H](O)[C@H]1O was read as VDR inh 15%&2%.
Screening O=C(O)C/C(=C\c1cc(Cl)c2c(c1)OCO2)c1nc2ccccc2s1 returned VDR inh -5%.
CN1CCN(c2nc(-c3ccccc3O)nc3ccccc23)CC1 was read as VDR inh 22%.
Screening O=C(COC(=O)CNC(=O)c1cccc(F)c1)NCCC1=CCCCC1 returned VDR inh -12%.
`O=S(=O)(c1ccccc1)N1CCC[C@@]2(CCN(C(c3ccccc3)c3ccccc3)C2)C1` gave VDR inh -1%.
For CNC(=S)N1N=C2c3ccccc3CCC2C1c1ccccc1Cl (stereo not drawn) the results were VDR inh 12%.
O=C(O)/C=C/C(=O)Nc1ccc(-c2ccccc2)cc1 was read as VDR inh 22%.
Screening CC1CCCCC1NC(=O)C1CCC(CNc2c(N3CCCCC3)c(=O)c2=O)CC1 (stereo not drawn) returned VDR inh -1%.
Screening Cn1c(C(O)c2ccc(Cl)cc2)nc(Cl)c1Cl (stereo not drawn) returned VDR inh -2%.
`C=CCOc1ccc(C2C(C(=O)c3cccs3)=C(O)C(=O)N2c2nnc(C)s2)cc1` (stereo not drawn) gave VDR inh -16%.

Gathered by group: the compounds so far containing bromine.
`O=C(CCS(=O)(=O)c1cc(Br)cc2c1N(C(=O)C1CC1)CC2)Nc1ccc(C(F)(F)F)cc1` gave VDR inh -21%.
`COc1cc(-c2nnc(SCC3(c4ccc(Br)cc4)OCCO3)o2)cc(OC)c1OC` gave VDR inh 6%.

Ordered by length of the SMILES (ascending): part of the list above.
CN1CCN(c2nc(-c3ccccc3O)nc3ccccc23)CC1 was read as VDR inh 22%.
Screening O=C(CSc1nnc(NC(=O)c2cccc(Cl)c2)s1)NCC1CCCO1 (stereo not drawn) returned VDR inh 9%.
Screening O=C(O)C/C(=C\c1cc(Cl)c2c(c1)OCO2)c1nc2ccccc2s1 returned VDR inh -5%.
Screening CC1CCCCC1NC(=O)C1CCC(CNc2c(N3CCCCC3)c(=O)c2=O)CC1 (stereo not drawn) returned VDR inh -1%.

Next section.
Screening COc1ccc(CC(=O)NCC2CCCN(Cc3cccc(SC)c3)C2)cc1 (stereo not drawn) returned VDR inh 6%.
`C/C(N)=C(/C#N)C(=O)COC(=O)CCS(=O)(=O)c1ccccc1` gave VDR inh -7%.
Screening CC(C)c1nc2oc3c(=O)[nH]cnc3c2c2c1COC(C)(C)C2 returned VDR inh 1%.
Screening O=C(Nc1ccc([N+](=O)[O-])cc1Br)c1cccnc1 returned VDR inh -17%.
Screening O=C(N/N=C/c1ccco1)c1cc(=O)[nH]c2ccccc12 returned VDR inh -10%.
For O=C(Nc1ccccc1)Nc1nnc(-c2ccccc2)o1 the results were VDR inh 16%.
For O=C(CSc1ncccn1)Nn1cnnc1 the results were VDR inh 2%.
`O=C(NCCc1ccccc1Cl)c1cc(COc2ccc(F)cc2F)on1` gave VDR inh -3%.
CC(C)C[C@H](NC(=O)N1CCN(c2ccccc2)CC1)C(=O)O was read as VDR inh -1%.
For CC(OC(=O)c1ccccn1)C(=O)Nc1nc(-c2ccc(F)c(F)c2)cs1 (stereo not drawn) the results were VDR inh 5%.
Screening O=S(=O)(NCc1ccccc1)c1ccccc1NCCc1ccccc1 returned VDR inh -1%.
`COc1ccccc1-c1nnc(SC(C)C(=O)NCC2CCCO2)n1C` (stereo not drawn) gave VDR inh -7%.
O=S(=O)(/N=C(/c1ccccc1)N1CCOCC1)c1ccc(F)cc1F was read as VDR inh 20%.
Screening O=C1C2C3C=CC(C4CC34)C2C(=O)N1/N=C/c1ccc([N+](=O)[O-])s1 (stereo not drawn) returned VDR inh -25%.
Screening N=c1oc2ccccc2cc1C(=O)Nc1ccccc1 returned VDR inh 1%.
`O=C(Nc1ccc(Br)cc1F)c1ccc2c(c1)OCCO2` gave VDR inh -7%.
Screening Cc1ccc(NC(=O)c2nnn(-c3ccc4c(c3)OCCO4)c2N)cc1 returned VDR inh -5%.
Screening O=C1CCCN1c1ccc(S(=O)(=O)N2CCN(c3ccccc3)CC2)cc1 returned VDR inh 17%.
`Cc1cccc(NC(=O)CSc2nnc(NC(=O)C3CCC3)s2)c1` gave VDR inh 24%.
CC(=O)c1sc(NC(=O)COc2ccc(Br)cc2)nc1C was read as VDR inh 27%.
CCCCOc1ccc(C(=O)Nc2ccc(-c3cc4ccccc4oc3=O)cc2)cc1 was read as VDR inh -19%.
`COCC(C)n1c(C)cc(C(=O)COC(=O)c2c(NC(C)=O)sc(C)c2C)c1C` (stereo not drawn) gave VDR inh 9%.
For Cc1cc(NC(=O)CN2C(=O)NC3(CCCCC3C)C2=O)no1 (stereo not drawn) the results were VDR inh -18%.
`COc1cccc(N2CCN(C(=O)c3cc4c(=O)oc5ccc(C)cc5c4s3)CC2)c1` gave VDR inh -7%.
CCCCNc1c([N+](=O)[O-])c(=O)n(C)c2ccccc12 was read as VDR inh 9%.
For CC1CC=CC2C1C(=O)N(Cc1ccccc1)C2c1ccc2ccccc2c1 (stereo not drawn) the results were VDR inh -25%.
For COc1ccccc1OCCSc1nc2ccccc2n1CC(O)CO (stereo not drawn) the results were VDR inh -3%.
Screening Cc1ccc(C2CCN(C(=S)Nc3cccc(C)c3)C2)cc1 (stereo not drawn) returned VDR inh -14%.
CN[C@H](C(=O)NC[C@H]1O[C@@H](n2cnc3c(N)ncnc32)[C@H](O)[C@@H]1O)[C@@H](C)OCc1ccccc1 was read as VDR inh -18%.
`CCn1c(/C=C/N(C(C)=O)c2ccccc2)[n+](CCCS(=O)(=O)[O-])c2cc(Cl)c(Cl)cc21` gave VDR inh 3%.
For COc1ccc(N(CC(=O)NCc2ccccc2)S(=O)(=O)c2c(C)n[nH]c2C)cc1 the results were VDR inh 1%.
O=C(NCc1ccc2c(c1)OCO2)c1ccc(N2CCCCCC2)c([N+](=O)[O-])c1 was read as VDR inh 0%.
`N#Cc1c(-c2ccc(F)cc2)nc(-c2ccccc2)[nH]c1=O` gave VDR inh 13%.
For O=C(Nc1ccc2c(c1)OCCO2)c1ccco1 the results were VDR inh -6%.
Screening O=C1Nc2ccc(Br)cc2C1(O)Cc1ccccn1 (stereo not drawn) returned VDR inh 4%.
CCN(CC)C(=O)Cn1c(=O)n(CCCC(=O)NCc2ccc3c(c2)OCO3)c(=O)c2sccc21 was read as VDR inh -6%.
`COc1ccc(/C=N/Nc2nn3cnnc3c3ccccc23)cc1` gave VDR inh 9%.
`O=C(NCC1([N+](=O)[O-])CN(C(=O)c2ccccc2)CN(C(=O)c2ccccc2)C1)c1ccccc1` gave VDR inh -8%.

Screening data (PubChem)

Not all compounds are listed; count on the stated rates, not on these rows.
